Compound activity from PubChem.
Six1-Eya2 inh = qHTS Assay for Inhibitors of the Six1/Eya2 Interaction. Homeobox protein SIX1 (Homo sapiens) + Protein phosphatase EYA2 (Homo sapiens), …. AlphaScreen GST-Six1/His-Eya2 binding, biochemical; stronger effect = lower value; control for the full effect not named in the record. activity change, % (no concentration beside the values). 0.56% of 360,000 active. AID 651725, 2012; in the data active = activity change below about -65%; inconclusive = about -30% to -65%; inactive = above about -30%; further: on the % scale 0 is the no-effect control and ±100 the full control effect; compound concentration not given in the record
Target sequence (O00167 whole entry, looked up): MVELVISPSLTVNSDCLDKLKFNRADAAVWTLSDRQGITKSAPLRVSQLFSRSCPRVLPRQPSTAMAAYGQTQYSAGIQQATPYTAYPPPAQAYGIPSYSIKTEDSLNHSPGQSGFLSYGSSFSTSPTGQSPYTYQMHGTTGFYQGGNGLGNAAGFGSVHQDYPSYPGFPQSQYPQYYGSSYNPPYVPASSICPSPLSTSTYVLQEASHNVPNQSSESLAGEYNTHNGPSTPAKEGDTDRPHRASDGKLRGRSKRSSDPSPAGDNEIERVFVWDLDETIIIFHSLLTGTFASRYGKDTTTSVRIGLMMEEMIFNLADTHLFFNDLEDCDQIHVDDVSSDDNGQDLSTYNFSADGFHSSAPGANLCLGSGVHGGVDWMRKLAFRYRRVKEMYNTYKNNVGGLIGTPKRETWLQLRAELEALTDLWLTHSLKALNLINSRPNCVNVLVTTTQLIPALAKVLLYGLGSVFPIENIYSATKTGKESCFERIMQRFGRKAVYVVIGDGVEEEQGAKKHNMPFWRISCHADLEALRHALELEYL
Target sequence (Q15475 whole entry, looked up): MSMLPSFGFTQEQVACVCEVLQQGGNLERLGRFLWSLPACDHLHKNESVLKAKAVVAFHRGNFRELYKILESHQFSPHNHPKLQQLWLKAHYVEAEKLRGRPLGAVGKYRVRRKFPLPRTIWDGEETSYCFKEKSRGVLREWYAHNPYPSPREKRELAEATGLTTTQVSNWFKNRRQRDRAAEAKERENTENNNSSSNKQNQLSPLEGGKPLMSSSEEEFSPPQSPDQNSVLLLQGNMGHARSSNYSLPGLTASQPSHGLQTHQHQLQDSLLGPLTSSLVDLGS
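GST-Six1 + His-Eya2 (5X stock: 250/500 nM); Tris pH 8.0, 300 mM NaCl, 0.05% BSA, 0.02% Tween 20; GSH donor/Ni acceptor beads; 1 h 37 °C dark; AlphaScreen readout.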
D2 ag = Beta-Arrestin HTS for Positive Allosteric Modulators of the Human D2 Dopamine Receptor: Agonists; activation, % (concentration not given with the values); DiscoveRx PathHunter D2 beta-arrestin, luminescence, 90 min; 100% = 57 uM dopamine signal; 0.084% of 360,000 active; in the data active = activation above about 40%; inconclusive = about 15% to 40%; inactive = below about 15%; further: compound concentration not given in the record; the text of the record calls up to 30% inactive
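Agonist mode: compounds alone added to overnight-plated D2 PathHunter cells for 90 min at 37 C, with 57 uM final dopamine (EC100) defining full response. Beta-arrestin recruitment detected by chemiluminescent reagent, read after 1 h at ambient temperature.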
D2 potentiator = Beta-Arrestin HTS for Positive Allosteric Modulators of the Human D2 Dopamine Receptor: Potentiators; D(2) dopamine receptor (Homo sapiens), P14416; DiscoveRx D2 beta-arrestin cells, luminescence, 90 min; 100% = 57 uM dopamine signal; potentiation, % (no concentration beside the values); 0.23% of 360,000 active; active = potentiation of 50% or more; inconclusive = 30% to 50%; inactive = 30% or less;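 further: compound concentration not given in the record; tested on top of an EC20 dose of dopamine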
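PathHunter beta-arrestin assay in DiscoveRx D2 cells. Compounds were added with an EC20 of dopamine (50 nM final) for 90 min at 37 deg C. Luminescence was read 1 h after detection reagent, with 57 uM dopamine as the EC100 control.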
gsp antagonist = qHTS for Antagonists of gsp, the Etiologic Mutation Responsible for Fibrous Dysplasia/McCune-Albright Syndrome: qHTS; gsp-mutant cells, cAMP HTRF, 30 min; control for the full effect not named in the record; Potency, µM (top dose mostly 76.9 µM), inactives show at the top dose activity change, negative = inhibition, usual class: inhibitors; 0.4% of 340,000 active; AID 624288, 2012; active = falling curve of any shape with a large fitted effect; inconclusive = falling curve, mostly with a smaller effect; inactive = flat or rising curve; cell line not stated here;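 further: intracellular cAMP measured with PDE inhibitor Ro 20-1724 present during compound exposure; potency means the concentration at half of the fitted maximal effect; on the % scale 0 is the no-effect control and ±100 the full control effect; nearly all actives have a fitted effect of over 65% in size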
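Cells, 2000/well, grown 16–24 h in DMEM 10% FBS with 0.5 mg/ml G418, then compounds plus […] (300 uM addition stock), 30 min at 37C. cAMP read by HTRF (cAMP-d2 and anti-cAMP antibody-K in lysis buffer) after 30 min RT.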
gsp ag = qHTS for Agonist of gsp, the Etiologic Mutation Responsible for Fibrous Dysplasia/McCune-Albright Syndrome: qHTS. gsp mutant cells, cAMP HTRF, 30 min; control for the full effect not named in the record. Potency, µM (highest dose often 76.9 µM), without a hit: at the highest dose activation (cAMP increase), hits mostly activators. 0.13% of 340,000 active; active = well fitted activation curve with a large enough effect; inconclusive = small, poorly fitted or top-dose-only effect, or another doubt; inactive = no such curve, though single readings can be large or run the other way; cell line not stated here;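 further: phosphodiesterase inhibitor Ro 20-1724 added with compounds to block cAMP breakdown; potency means the concentration at half of the fitted maximal effect; nearly all actives have a fitted effect of over 60% in size; about a fifth of the inactives were tested at one dose only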
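Cells in DMEM/10% FBS with G418 were pretreated with compounds in DMSO plus […] (300 uM stock) for 30 min at 37C. cAMP was measured by HTRF (cAMP-d2 plus anti-cAMP antibody-K) after 30 min at room temperature.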
CtBP-E1A inh = qHTS Assay for Inhibitors of the CtBP/E1A Interaction | AlphaScreen GST-E1A/His-CtBP binding, 1536-well; stronger effect = lower value; control for the full effect not named in the record | AID 651724, 2012 | 0.49% of 340,000 active | activity change, % (concentration not given with the values); in the data active means activity change below about -65%; inconclusive means about -30% to -65%; inactive means above about -30%; further: on the % scale 0 is the no-effect control and ±100 the full control effect
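Homogeneous bead-based format: GST-tagged E1A captured on glutathione donor beads, His-tagged CtBP on nickel acceptor beads; compounds precede bead addition by 2 h at 37 °C.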
An asterisk follows results filed as active; ? = inconclusive; nt = not tested or not shown; [ ] = another dose, or the depositor's remark.

Six1-Eya2 inh	D2 ag	D2 potentiator	gsp antagonist	gsp ag	CtBP-E1A inh	Molecule
-1.7	0.9	-14.3	7.4%[15.4 µM]	-41.4%[inhibitor]	4.7	Cc1nc2ccc(S(=O)(=O)NCC(=O)O)cc2s1
1.4	-1.0	-15.0	5.4%	13.1%	nt	CCOc1ccccc1CN1CCN(Cc2nc3c(s2)CCCC3)CC1CCO (stereo not given)
1.5	-0.1	-7.0	-37.1%	1.3%	9.9	Cc1c(C(=O)c2ccc3c(c2)OCO3)ccc2c1OCO2
5.4	-6.4	-10.2	?	-40.5%[inhibitor]	nt	O=C(c1ccccc1)N1N=C(c2cccs2)CC1c1ccccc1O (stereo not given)
85.2	0.5	2.4	-23.7%	?	55.0	Cc1ccc(Cn2cccc(-c3nc4ccccc4s3)c2=O)cc1
5.7	0.9	16.7	-2.5%	?	-0.1	CCCc1nnc(SCCSc2nnc(CCC)n2N)n1N
6.4	-1.9	-7.1	6.5%	-0.6%	3.7	CC(=O)Nc1ccc(S(=O)(=O)NC2(C(F)(F)F)C(=O)Nc3c2c(=O)[nH]c(=O)n3Cc2ccco2)cc1 (stereo not given)
-2.0	6.0	13.2	12.5%	-2.4%[15.4 µM]	-7.2	O=[N+]([O-])c1nn(-c2ccccc2)n(O)c1=NC1CCN(Cc2ccccc2)CC1
1.0	-3.5	-8.0	-7.0%	9.8%	-14.5	COc1ccccc1/C=N/NC(=O)CSc1ccc2ccccc2n1
10.4	-3.7	-19.3	-3.9%	10.8%	4.0	CCCCNCCCOc1cc(Cl)ccc1Cl
?	-0.6	-5.8	?	1.7%	-22.9	O=C(O)C1=NN(c2cc(Cl)c(S(=O)(=O)O)cc2Cl)C(=O)C1
3.0	-6.3	-1.0	-1.2%	17.1%	0.4	CCOC(=O)N1CCC(NS(=O)(=O)c2cc(C(=O)OC)n(C)c2)CC1
-26.6	-5.7	-14.3	0.2%	-14.9%	nt	CC(C(=O)Nc1ccc(O)c(C(=O)O)c1)N1C(=O)/C(=C/c2cccs2)SC1=S (stereo not given)
8.1	-1.4	16.8	-0.9%	7.6%[15.4 µM]	-5.5	CN(C(=O)COC(=O)CSc1ccc([N+](=O)[O-])cc1)C1CCS(=O)(=O)C1 (stereo not given)
3.1	7.3	-2.8	10.7%	-33.4%[inhibitor]	0.0	CC(C)N1CCC(N2CCN(Cc3ccc(C#CC(C)(C)O)s3)CC2CCO)CC1 (stereo not given)
3.2	-1.1	-5.7	4.0%	-10.2%	6.0	CN(C)S(=O)(=O)N1CCN(S(=O)(=O)c2ccccc2)CC1
6.2	-1.0	0.5	4.0%	11.6%	12.3	O=C1CC(c2ccccc2)=Nc2ccccc2N1
-1.7	-4.3	-25.0	1.8%	?	-1.2	COc1ccc(C(=O)COC(=O)c2ccco2)cc1
-23.4	-3.6	-2.5	nt	7.6%	-14.1	CN(C)c1nn2c(-c3ccccc3)nnc2o1
-6.6	-2.0	-6.9	?	3.3%[15.4 µM]	1.2	COCCN1C(=O)N(c2ccc(Cl)cc2)C(=O)C1CC(=O)Nc1cc(OC)cc(OC)c1 (stereo not given)
-0.1	5.2	-4.9	-14.1%	-32.0%[inhibitor]	nt	CCC(C)Nc1nc(C)nc2c1oc1ccccc12 (stereo not given)
-1.4	0.4	-4.3	-22.5%	15.8%[15.4 µM]	-20.5	CCOC(=O)c1cccnc1NC(=O)c1ccccc1
-69.7*	-0.1	-15.1	-21.6%	-3.5%[15.4 µM]	3.1	CCN(CC)c1ccc(NC(=S)NC(=O)c2ccco2)cc1
-17.5	-0.4	13.4	-13.4%	-22.5%	-16.6	Cc1[nH]c(=O)[nH]c(=O)c1/C=N/NC(=O)[C@H](CC(C)C)NC(=O)OC(C)(C)C
0.0	-1.8	-16.5	-20.0%	-1.6%	5.7	CCOC(=O)c1sc(NC(=O)CSc2ncn[nH]2)c(C#N)c1C
3.0	-2.7	2.0	-2.7%	16.9%	-0.3	CCOC(=O)C1(Nc2nccs2)Sc2ccccc2NC1=O (stereo not given)
0.4	5.2	-10.4	?	24.4%	nt	N#C/C(=C(/O)c1ccccc1F)c1nc2cc(C(F)(F)F)ccc2s1
-17.7	-1.1	-16.5	-5.5%	11.4%[15.4 µM]	-1.0	Cc1nnc(SC(C(=O)Nc2ccc(Cl)c([N+](=O)[O-])c2)c2ccccc2)[nH]c1=O (stereo not given)
10.0	-2.4	-11.3	-5.3%	-15.6%[15.4 µM]	-22.9	CCc1ccc(-n2c(C)nc3cc(C(=O)NCc4cccnc4)ccc32)cc1
9.8	-3.5	-1.8	7.9%	?	nt	O=C(CN1C(=O)NC2(CCCc3ccccc32)C1=O)c1ccc(F)cc1 (stereo not given)
-18.0	-0.1	7.1	2.8%	-6.6%	-13.9	Fc1ccc(/C=N/c2c(-c3ccc(F)cc3)nc3n2CCS3)cc1
-4.2	0.6	-6.5	3.2%	4.2%[15.4 µM]	10.7	CC1C(=O)N2CCCc3cc(S(=O)(=O)NCc4ccc(F)cc4)cc1c32 (stereo not given)
4.1	1.0	-0.3	3.9%	8.4%	6.1	CCCCC(CC)CNC(=O)C1C2C=CC(C2)C1C(=O)O (stereo not given)
7.6	-2.2	-0.9	-4.2%	3.0%[15.4 µM]	-1.2	C=CCN(c1ccc(C(=O)Nc2ccc3c(c2)n(C)c(=O)n3C)cc1)S(C)(=O)=O
?	-0.3	-3.7	-10.0%	-14.9%	?	Cc1ccccc1C(=O)Nc1ccc(N2CCCCCC2)cc1
-1.6	-2.2	-3.0	-1.3%	-4.0%	-5.2	CCOC(=O)C1=C(c2ccccc2)NC(=O)NC1c1ccc(O)c(OCC)c1 (stereo not given)
-1.8	-7.5	-10.6	2.2%	-6.2%	nt	O=C(Nc1cccc(-n2cnnn2)c1)c1cccc(Cl)c1
-14.9	0.4	-19.9	3.5%	6.1%	-27.7	CCN(Cc1ccccc1)c1ccc(/C=N/N=C(N)N)cc1
-5.5	-3.3	-10.2	7.7%	nt	-0.5	COc1ccc(OC)c(C(=O)NC(CC(N)=O)c2ccc(N3CCC(N4CCCC4)CC3)c([N+](=O)[O-])c2)c1 (stereo not given)
-5.1	-0.8	-24.6	-0.4%	-42.6%[inhibitor]	-5.5	CCN1CCN(c2cc(C)c3cc(NC(=S)NCCN(C)C)ccc3n2)CC1

Compound profiles (already shown). Order of screens: Six1-Eya2 inh, D2 ag, D2 potentiator, gsp antagonist, gsp ag, CtBP-E1A inh
Listed for `O=C(Nc1cccc(-n2cnnn2)c1)c1cccc(Cl)c1` = -1.8, -7.5, -10.6, 2.2%, -6.2%, nt
Listed for `CCOC(=O)C1=C(c2ccccc2)NC(=O)NC1c1ccc(O)c(OCC)c1` (stereo not given) = -1.6, -2.2, -3.0, -1.3%, -4.0%, -5.2
Listed for `CCN(Cc1ccccc1)c1ccc(/C=N/N=C(N)N)cc1` = -14.9, 0.4, -19.9, 3.5%, 6.1%, -27.7
Listed for `CCN1CCN(c2cc(C)c3cc(NC(=S)NCCN(C)C)ccc3n2)CC1` = -5.1, -0.8, -24.6, -0.4%, -42.6%[inhibitor], -5.5

(cont.)
Six1-Eya2 inh	D2 ag	D2 potentiator	gsp antagonist	gsp ag	CtBP-E1A inh	Molecule
0.9	-0.7	-5.7	2.8%	-1.7%[15.4 µM]	10.4	COC(=O)C1CCN(C(=O)CN2C(=O)c3ccccc3S2(=O)=O)CC1
0.8	0.3	-3.1	-2.6%	?	0.1	COc1cccc(C(=O)Nc2cc3c(cc2N2CCOCC2)n(C)c(=O)n3C)c1
1.5	-0.6	-11.0	?	?	-4.3	Cc1noc(C)c1C(=O)Nc1nc(C23CC4CC(CC(C4)C2)C3)cs1
2.8	-3.5	0.5	-6.6%	21.0%	3.9	C=CCSC1=N/C(=C\c2ccsc2)C(=O)S1
-17.4	-2.7	9.8	7.9%	nt	-22.0	COc1cccc2c1C(=O)c1c(O)c3c(c(O)c1C2=O)C[C@@](O)(C(=O)CO)C[C@@H]3O[C@H]1C[C@H](N)[C@H](O)[C@H](C)O1
8.9	6.2	3.2	-3.2%	25.0%	2.2	CCCc1cc(=O)[nH]c(SCC(=O)Nc2nonc2C)n1
-23.3	-3.9	4.1	-20.2%	-1.6%[15.4 µM]	?	COc1ccc2nc3ccccc3nc2c1NC(=O)c1ccccc1Cl
4.0	-2.1	-1.9	-2.3%	?	-2.3	Cc1ccc(NS(=O)(=O)c2c(C)[nH]c(C)c2C(=O)N2CCCCC2)c(Cl)c1
0.8	0.5	-2.3	-7.9%	1.9%	4.1	CCCCn1cnc2c(c1=O)c1nc3ccccc3nc1n2Cc1ccc2c(c1)OCO2
3.4	-3.2	-10.2	-5.9%	-34.3%[inhibitor]	4.5	O=C(CCc1nc(-c2ccccc2)no1)NC1CCCCC1
0.6	-5.9	-0.8	nt	nt	8.1	Nc1ncnc2c1ncn2[C@@H]1O[C@H](C(=O)N2CCSC2)[C@@H](O)[C@H]1O
15.1	2.4	-3.2	-12.7%	-12.7%[15.4 µM]	0.0	CCOc1ccc(CN(C)C(=O)CNC(=O)Cc2cccc3ccccc23)cc1
-28.7	-1.3	-33.4	1.0%	-1.8%	-17.5	CCOCCN1CCN(c2c(CC)c(C)nc3cc(-c4cc(OC)cc(OC)c4)nn23)CC1
12.6	2.6	-30.8	5.3%	18.5%	9.1	CC1CCOC2(O1)C(=O)N(CN1CCN(c3ccccc3F)CC1)c1ccccc12 (stereo not given)
4.9	-1.7	3.7	-14.1%	4.8%	-0.8	CN(C(=O)CSc1nnc2ccccn12)c1c(N)n(Cc2ccccc2)c(=O)[nH]c1=O
-1.2	-3.0	-8.3	4.2%	nt	3.5	O=C([C@@H]1CC=C[C@@H]2CCN(C3CC3)C(=O)[C@@H]21)N1CCN(c2ccccc2)CC1
